GALR2 ag – GALR2 (human) receptor agonism. O43603. GALR2-expressing cells, agonist activation read-out. activation, %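 (tested at 5 µM)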. 0.48% of 140,000 active;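 active = above mean plus 3 SD of all compounds, about 5% in these data, not always enough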;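 also: 0% = vehicle buffer wells and 100% = reference agonist at full effect; tested in CHO reporter cells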
Target sequence (O43603 whole entry, looked up): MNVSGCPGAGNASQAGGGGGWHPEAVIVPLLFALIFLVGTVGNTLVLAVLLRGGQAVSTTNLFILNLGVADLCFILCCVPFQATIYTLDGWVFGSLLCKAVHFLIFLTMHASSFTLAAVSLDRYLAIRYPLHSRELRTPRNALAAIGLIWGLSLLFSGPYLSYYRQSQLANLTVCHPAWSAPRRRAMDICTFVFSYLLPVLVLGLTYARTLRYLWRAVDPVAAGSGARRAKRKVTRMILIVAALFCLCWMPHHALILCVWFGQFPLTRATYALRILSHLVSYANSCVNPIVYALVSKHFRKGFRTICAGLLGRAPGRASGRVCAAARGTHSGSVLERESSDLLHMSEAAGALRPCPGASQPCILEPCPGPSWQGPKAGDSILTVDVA
Insulin prom inh – TRM-6 insulin promoter activity inhibition; TRM-6 cells (human fetal islet line), insulin promoter-eGFP reporter, imaging; reporter expression induced with tamoxifen; 0.9% of 130,000 active; inhibition, % at 2 µM; AID 1273;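 active = inhibition above the mean plus 3 SD, with well images judged a real hit on visual review, cut at about 60% in these data, passing the limit was not always enough; inconclusive = inhibition over the cutoff but images rejected on review; inactive = inhibition not above the cutoff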
HSV augment – increases HSV replication in cells. HSV replication augmentation in cells, fold increase. maximum fold increase. 0.005% of 220,000 active;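 active = peak rise of 1.5-fold or more in the series; inconclusive = self-fluorescent or not available for retest; tested in PC3 cells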;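 also: first round at 10 µM; read as green reporter fluorescence; hits show the peak of a series up to 25 µM; 1 = signal of infected wells without compound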
RGS16-Gao – modulates binding between human RGS16 and Galphao. bead-based flow cytometry RGS16-Galphao binding, fluorescence; actives lie on both sides. O15492+P09471. 0.38% of 220,000 active. binding response (% of control), % at 10 µM;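 active = below 25% or above 175%, edge rows of some plates excepted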;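 also: Galphao activated by GDP with aluminum fluoride before binding; 100% = wells without compound and 0% = beads without RGS; some results beyond the cut were filed as inactive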
Target sequence (O15492 whole entry, looked up): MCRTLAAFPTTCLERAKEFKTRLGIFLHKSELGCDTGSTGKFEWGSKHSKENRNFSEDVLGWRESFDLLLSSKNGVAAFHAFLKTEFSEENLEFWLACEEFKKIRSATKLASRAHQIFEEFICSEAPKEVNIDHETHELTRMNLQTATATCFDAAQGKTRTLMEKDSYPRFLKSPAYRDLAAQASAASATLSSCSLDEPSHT
Target sequence (P09471 whole entry, looked up): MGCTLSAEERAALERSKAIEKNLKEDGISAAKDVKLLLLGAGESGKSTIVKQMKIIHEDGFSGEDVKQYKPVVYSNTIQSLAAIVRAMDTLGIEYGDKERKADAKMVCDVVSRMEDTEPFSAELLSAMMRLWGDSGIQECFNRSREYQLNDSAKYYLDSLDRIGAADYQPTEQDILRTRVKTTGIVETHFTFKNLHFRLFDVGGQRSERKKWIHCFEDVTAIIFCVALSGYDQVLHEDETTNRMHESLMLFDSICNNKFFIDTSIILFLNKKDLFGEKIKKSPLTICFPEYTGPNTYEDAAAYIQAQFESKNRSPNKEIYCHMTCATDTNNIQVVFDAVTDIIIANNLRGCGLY
PKD1 inh – blocks activity of human protein kinase D1. PKD1 kinase fluorescence polarization assay. inhibition, %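 (about 10 µM by stock and volumes)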. 0.056% of 200,000 active;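 active = inhibition of 50% or more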;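 also: controls were vehicle for no effect and a reference inhibitor for full effect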
Insulin prom inh cell count – also measured in Insulin prom inh; calls as there; normalized cell count, %; measured here: cell count, toxicity; reference of the scale not given here;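 cells exposed to compound for 48 h; stained nuclei by imaging scaled within each plate; lower means fewer cells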
HSV augment primary fold – also measured in HSV augment; calls as there; fold increase; compound at 10 µM; measured here: primary screen fold increase 10 uM; tested in PC3 cells;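 GFP signal in the first replicate; 1 = infected wells without compound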
* = called active by the depositor; i = inactive; ? = inconclusive; nt = not tested or not shown. Rows are unselected, and some 1.3% of all compounds hit somewhere here.

SMILES | GALR2 ag | Insulin prom inh | Insulin prom inh cell count | HSV augment | HSV augment primary fold | RGS16-Gao | PKD1 inh
Cc1nn(-c2ccccc2)c2c1cc1c(=O)n(C)c(=O)nc-1n2-c1ccccc1F | nt | nt | nt | i | 1.1 | 98.1 | nt
O=C(/C=C/c1ccc2c(c1)OCO2)Nc1nc(-c2ccc(F)cc2F)cs1 | -0.9 | -20.0 | 140.1 | i | 1.03 | 104.7 | 6.1
Nc1nnc(SCC(=O)Nc2cccc(S(N)(=O)=O)c2)s1 | nt | nt | nt | i | 1.01 | 103.2 | -4.5
Cc1nc2ccccn2c1C(=O)NN=C1CCCC1 | nt | nt | nt | i | 0.91 | 96.2 | 2.5
Cc1cc(=O)oc2c(CN(C)Cc3ccccc3)c(O)ccc12 | 2.4 | 3.5 | 140.7 | nt | nt | 101.2 | 0.7
COc1ccc(-n2nc([N+](=O)[O-])c(=NC3CCN(Cc4ccccc4)CC3)n2O)cc1 | nt | 33.3 | 114.3 | i | 0.96 | 104.4 | -8.8
Cc1ccc2nc(N/N=C\c3ccc([N+](=O)[O-])o3)nc(-c3ccccc3)c2c1 | -1.5 | -21.7 | 104.0 | nt | nt | 101.1 | -2.2
C[n+]1ccc(/C=C/c2ccccc2O)c2ccccc21 | nt | nt | nt | i | 1.04 | 100.2 | 1.7
Nc1nc2cc(S(=O)(=O)NC3=NCCCCC3)ccc2s1 | nt | nt | nt | i | 1.07 | 87.4 | nt
O=C(NCCO)/C(=C/c1ccc(Br)cc1)NC(=O)c1cccs1 | -1.1 | -40.7 | 58.4 | i | 1.08 | 101.7 | -0.5
CCOC(=O)c1c(N)nn(C(C)=O)c1-c1ccccc1 | -3.2 | 18.2 | 121.0 | i | 0.96 | 89.6 | -1.0
CC1CN(C2=NC(=O)/C(=C/c3ccncc3)S2)CC(C)O1 (stereo not given) | nt | nt | nt | i | 0.99 | 96.6 | nt
CN(C)/C=C(\C=N\OCc1ccc(Cl)cc1Cl)C(=O)Nc1ccc(Cl)c(Cl)c1 | -2.2 | -40.7 | 76.0 | i | 0.68 | 103.9 | -6.7
O=C(Cn1cccc1C(=O)c1ccccc1)NCCN1CCCCCC1 | 0.2 | -50.0 | 103.0 | i | 0.96 | 105.0 | -0.6
CC(=O)N1N=C(N)SC12CCCC2 | nt | nt | nt | i | 1.05 | 114.0 | -1.1
O=C1NC(c2ccncc2)Nc2ccccc21 (stereo not given) | -2.2 | nt | nt | i | 1.08 | 102.3 | 15.2
C=CCOC(=O)C1=C(C)NC(SCC)=C(C#N)C1c1ccc(Cl)cc1 (stereo not given) | 0.1 | 45.7 | 48.0 | i | 1.02 | 90.4 | -12.1
CC(Cc1cccs1)NC(=S)Nc1ccccc1 (stereo not given) | 0.3 | -4.0 | 47.1 | i | 0.98 | 73.3 | -5.5
COc1ccc(/C(C)=N/NC(=S)Nc2cc(C)ccc2C)cc1 | nt | nt | nt | i | 0.97 | 100.2 | -4.8
O=C(c1ccc(CN2CCc3ccccc3C2)cc1)N1CCN(c2ccc(F)cc2)CC1 | -2.1 | -14.8 | 135.6 | i | 0.91 | nt | -6.2
Cc1ccc(C)c(NC(=O)c2cccc(Oc3ccc([N+](=O)[O-])cc3Cl)c2)c1 | 0.5 | nt | nt | i | 1.02 | 106.1 | 4.4
CCCN(CCC)C(=O)C[n+]1cccc(/C=N/O)c1 | -0.4 | 28.6 | 107.5 | i | 0.93 | 99.3 | 0.5
O=C(NC1CC2CCCC(C1)N2Cc1cccs1)c1ccc([N+](=O)[O-])cc1 (stereo not given) | nt | nt | nt | i | 1.07 | 93.2 | 2.1
COCCN(CC(=O)NCc1ccc(F)cc1)C(=O)CCC(=O)Nc1ccccn1 | -1.4 | nt | nt | i | 0.98 | 110.7 | 5.6
COc1cc(O)c(C(CC(=O)N2CCCC(C)C2)c2ccc(N(C)C)cc2)c(OC)c1 (stereo not given) | nt | nt | nt | i | 0.86 | 105.0 | nt

3 entries from above in another layout:
Structure,GALR2 ag,Insulin prom inh,Insulin prom inh cell count,HSV augment,HSV augment primary fold,RGS16-Gao,PKD1 inh
O=C1NC(c2ccncc2)Nc2ccccc21 (stereo not given),-2.2,nt,nt,i,1.08,102.3,15.2
C=CCOC(=O)C1=C(C)NC(SCC)=C(C#N)C1c1ccc(Cl)cc1 (stereo not given),0.1,45.7,48.0,i,1.02,90.4,-12.1
CC(Cc1cccs1)NC(=S)Nc1ccccc1 (stereo not given),0.3,-4.0,47.1,i,0.98,73.3,-5.5

Further compounds follow.
SMILES | GALR2 ag | Insulin prom inh | Insulin prom inh cell count | HSV augment | HSV augment primary fold | RGS16-Gao | PKD1 inh
Cc1cc(C(=O)NC(C)CCC(C)C)c2ccccc2n1 (stereo not given) | nt | nt | nt | i | 1.39 | 102.0 | -0.1
CCn1c(SCC(=O)OC2CCCCC2)nnc1-c1ccncc1 | -1.1 | nt | nt | i | 1.01 | 100.3 | 0.7
Cc1c(C#N)c(NC(=O)CCl)n(Cc2ccccc2)c1C | nt | 33.3 | 151.2 | i | 1.02 | 102.5 | 4.7
O=S(=O)(c1ccccc1)c1cnc(-c2ccccc2)nc1N1CCCC1 | nt | nt | nt | i | 0.98 | 98.8 | 3.5
COc1ccc(-c2cn3c(C)c(C(=O)Nc4cc(NC(C)=O)ccc4OC)sc3n2)cc1 | -1.6 | -12.5 | 41.5 | i | 0.59 | 101.1 | 5.8
CCCCC(=O)NCCc1cc2c(C)ccc(C)c2[nH]c1=O | -0.7 | nt | nt | i | 0.88 | nt | 6.1
Cn1c(Cn2c(=O)sc3ccccc32)nnc1SCC(=O)N1CCCc2ccccc21 | -0.3 | nt | nt | i | 1.19 | 90.3 | 1.8
COc1cccc(C(=O)NN2C(=O)C3C4C=CC(O4)C3C2=O)c1 (stereo not given) | -0.9 | -20.0 | 128.5 | i | 1.07 | 106.1 | 6.4
COc1cccc(N2CN(C3CCCCC3)CNC2=S)c1 | nt | nt | nt | i | 0.95 | 104.9 | nt
O=C(NCc1ccc2[nH]c3c(c2c1)CCCC3)c1ccc(S(=O)(=O)N2CCCCC2)cc1 | -1.1 | 17.1 | 98.4 | i | 0.92 | 102.6 | -8.7
COCCNC(=O)CN1C(=O)CC(C)(C)S(=O)(=O)c2ccccc21 | -3.0 | nt | nt | i | 0.97 | 96.6 | 1.2
CCN1CCSc2ccc(C(=O)Nc3ccc(NC(C)=O)cc3)cc21 | nt | 0.0 | 126.1 | i | 0.87 | 101.3 | -3.1
COc1cccc(C(=O)COC(=O)C(C)N2C(=O)C3C4C=CC(C4)C3C2=O)c1 (stereo not given) | -0.3 | 26.7 | 126.0 | i | 1.02 | 104.5 | 7.1
O=C(O)c1ccc2c(c1)C(=O)N(c1nccs1)C2=O | nt | nt | nt | i | 0.99 | 104.0 | nt
O=C(CN1CCCCCC1)NCc1ccccc1 | nt | nt | nt | i | 0.97 | 99.6 | -11.1
O=[N+]([O-])c1cnc2ccccc2c1 | -0.2 | nt | nt | i | 0.85 | 43.9 | -5.7
Cc1ccc(C2=NN(C(=O)CCC(=O)O)C(c3cn(-c4ccccc4)nc3-c3ccc(C)cc3)C2)cc1 (stereo not given) | nt | nt | nt | i | 1.03 | 101.8 | 1.4
Cc1nnc(SCC(=O)N2CCCCCC2)n(N)c1=O | nt | 0.0 | 176.2 | i | 0.89 | 103.3 | 5.7
CC(C)C[C@H](NC(=O)c1nc[nH]c1C(=O)NCc1ccccc1)C(=O)OCc1ccccc1 | nt | nt | nt | i | 0.85 | 96.7 | -0.2
O=C(Nc1ccc(N2CCCC2)c(Cl)c1)c1ccccc1[N+](=O)[O-] | -1.6 | -36.4 | 67.7 | i | 0.9 | 103.7 | -8.6
CCNc1nc(Oc2ccc(C(=O)OCC)cc2)nc(N2CCOCC2)n1 | nt | -83.3 | 74.1 | i | 1 | 102.0 | -6.6
COc1ccccc1NC(=O)N1CCC(c2nc3ccccc3o2)CC1 | nt | nt | nt | i | 0.92 | 94.8 | -1.8
COc1ccc(-n2nnnc2SCC(=O)Nc2cccc(NC(C)=O)c2)cc1OC | 0.1 | -45.5 | 106.4 | i | 0.87 | 99.8 | 2.4
Nn1c(SCc2ccccc2)nnc1-c1ccccn1 | -2.6 | 34.3 | 236.8 | i | 0.87 | 100.7 | -4.1
COc1ccc(CN2CCNC(=O)C2CC(=O)NCc2ccc(C)s2)c(OC)c1 (stereo not given) | nt | -34.8 | 222.0 | i | 0.97 | 103.7 | -8.1

Brought forward from above: two compounds, followed by the next part.
SMILES | GALR2 ag | Insulin prom inh | Insulin prom inh cell count | HSV augment | HSV augment primary fold | RGS16-Gao | PKD1 inh
Nn1c(SCc2ccccc2)nnc1-c1ccccn1 | -2.6 | 34.3 | 236.8 | i | 0.87 | 100.7 | -4.1
COc1ccc(CN2CCNC(=O)C2CC(=O)NCc2ccc(C)s2)c(OC)c1 (stereo not given) | nt | -34.8 | 222.0 | i | 0.97 | 103.7 | -8.1
COc1ccc(/C=C/C(=O)NCC2COc3ccccc3O2)cc1OC (stereo not given) | nt | nt | nt | i | 0.86 | 99.9 | -9.4
Cc1[nH]c2ccccc2c1/C=N/Nc1ccc([N+](=O)[O-])cc1 | 0.9 | nt | nt | ? | nt | 117.2 | 2.2
CN=C(Nc1ccc(Cl)cc1)c1cccc(C(F)(F)F)c1 | -2.9 | -170.0 | 103.5 | i | 0.79 | 93.7 | -8.9
CCCCCc1ccc(CC(=O)Nn2c(C)nc3ccccc3c2=O)cc1 | -0.8 | nt | nt | i | 0.93 | 105.0 | -14.5
CCC(=O)NC(c1cccc([N+](=O)[O-])c1)c1c(O)ccc2ccccc12 (stereo not given) | nt | nt | nt | i | 1.01 | 98.7 | -6.0
CCn1cc(C(=O)N2CCN(c3ccc(C(C)=O)cc3)CC2)c2cc(OC)c(OC)cc2c1=O | nt | nt | nt | i | 0.97 | 101.5 | -8.1
CC(O)Cn1cnc2c1c(=O)n(C)c(=O)n2C (stereo not given) | -0.6 | -28.6 | 169.7 | i | 0.91 | 103.1 | -3.1
COc1ccc(C(C)(C)C)cc1S(=O)(=O)N1CCN(C)CC1 | -2.6 | 53.9 | 124.3 | i | 0.89 | 99.6 | -1.6
CCCCC(=O)OCC(=O)Nc1ccc(OC(F)F)cc1 | -0.4 | nt | nt | i | 1.03 | 98.9 | -9.6
COc1nc(-c2cnccn2)sc1C | nt | nt | nt | i | 0.88 | 100.0 | -10.0
Cc1sc2nc(SCC(=O)c3cccs3)n(Cc3ccco3)c(=O)c2c1C | -0.6 | 9.1 | 63.9 | i | 0.85 | 98.8 | -5.1
Cc1c(N=C2SCC(=O)N2c2c(C)n(C)n(-c3ccccc3)c2=O)c(=O)n(-c2ccccc2)n1C | -1.6 | -8.6 | 50.6 | i | 1.1 | 110.3 | 1.5
CCOC(=O)c1ccc(S(=O)(=O)NCCN(CC)CC)cc1 | nt | 5.9 | 150.2 | i | 0.98 | 103.8 | -2.5
CCOC(=O)C1CCN(CC(=O)Nc2c(C(=O)OC)[nH]c3cccc(Cl)c23)CC1 | 0.9 | -36.4 | 105.2 | i | 1 | 103.9 | -0.1
O=C(COC(=O)CCS(=O)(=O)c1ccc(Cl)cc1)Nc1ncc(Cl)cc1Cl | -4.1 | nt | nt | i | 1.06 | 120.8 | -0.3
Cn1c(=O)c2c(nc(CN3CCN(c4ccccc4F)CC3)n2CCN2CCOCC2)n(C)c1=O | -1.1 | -5.4 | 45.9 | i | 1.07 | 92.8 | -10.2
COc1c(C)cc(S(=O)(=O)N2CCCC2)c(C)c1C | -1.8 | 46.4 | 45.2 | i | 1.19 | 106.6 | -3.3
Cc1[nH]c2ccccc2c1C(=O)CN1CCCCC1CCO (stereo not given) | -1.6 | 36.4 | 121.7 | i | 0.98 | 105.5 | -1.5
CC1=NN(C(=O)c2ccc(C)o2)C(O)(c2ccccc2)C1 (stereo not given) | -1.0 | 3.3 | 66.9 | i | 0.91 | 102.4 | -2.2
CCOC(=O)c1cc(C(O)(C(F)(F)F)C(F)(F)F)c(/N=C/N(C)C)o1 | -1.7 | 36.4 | 79.3 | i | 0.84 | 102.1 | 13.2
CCN(Cc1cc2ccccc2[nH]c1=O)C(=O)C(C)C | -0.8 | -5.9 | 149.7 | i | 1 | 100.1 | 0.1
Cc1cccc(C)c1NC(=O)CSc1nnc(NC(=O)c2ccccc2C(=O)O)s1 | nt | nt | nt | i | 1 | 93.0 | nt
O=C(O)C1CC(=O)N(Cc2ccc(F)cc2)C1 (stereo not given) | -0.9 | 18.8 | 114.0 | i | 1.05 | 60.0 | -5.9
O=C(COC(=O)c1ccccc1Cl)NCCC1=CCCCC1 | nt | -21.4 | 81.3 | i | 0.93 | 101.6 | 0.7
C[C@@]12CCC=C[C@H]1[C@H](c1ccc(F)c(/C=C/c3ccccc3)c1)N(Cc1ccccc1)C2=O | nt | nt | nt | i | 0.85 | 104.6 | nt
